High-throughput results from PubChem BioAssay.
ClpP mod: qHTS Assay for Activators of ClpP; ATP-dependent Clp protease proteolytic subunit (Bacillus subtilis (strain 168)), P80244; purified B. subtilis ClpP, FRET peptide cleavage, 20 min; Potency, µM (titrated, usually from 57.5 µM), without a hit: at the top dose activity change, negative = active; 340,000 compounds, 1.9% hits; active = well fitted falling curve with a large enough effect; inconclusive = small, poorly fitted or top-dose-only effect; inactive = no such curve, though single readings can be large or run the other way; note: potency is the fitted concentration of half-maximal effect; the source files actives as falling curves though it sought activators and does not explain the sign; nearly all actives have a fitted effect of over 65% in size; many hits overshoot -100%
Target sequence (P80244 whole entry, looked up): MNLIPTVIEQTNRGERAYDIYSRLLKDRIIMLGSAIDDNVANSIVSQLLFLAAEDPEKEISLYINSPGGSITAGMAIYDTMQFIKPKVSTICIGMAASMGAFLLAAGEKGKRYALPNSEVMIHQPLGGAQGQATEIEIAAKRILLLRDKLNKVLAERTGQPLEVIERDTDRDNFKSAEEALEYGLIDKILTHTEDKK
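Buffer: 100 mM Tris/HCl pH8, 100 mM KCl, 0.05% low protease BSA, 2.5% glycerol, 0.01% Tween-20. ClpP 10 microg/mL final; 20 min RT; delta FRET normalized to ADEP and DMSO controls.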
TRPML1 blocker: qHTS for Inhibitors of the Human Mucolipin Transient Receptor Potential 1 (TRPML1); AID 624415, 2012; 390,000 compounds, 0.02% hits; TRPML1-inducible cells, Ca2+ dye fluorescence, FDSS; stronger effect = lower value; inhibition of EC80 agonist-evoked calcium signal; activity change, negative = inhibition, % (no concentration beside the values); in the data active means activity change below about -50%; inconclusive means about -30% to -50%; inactive means above about -30%;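 note: stimulus is agonist 54-4 at its EC80 concentration; % is set by controls: 0 for no effect and ±100 for the full control effect; compound concentration not given in the record; the text of the record puts the active cut at -80%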
Target sequence (Q9GZU1 whole entry, looked up): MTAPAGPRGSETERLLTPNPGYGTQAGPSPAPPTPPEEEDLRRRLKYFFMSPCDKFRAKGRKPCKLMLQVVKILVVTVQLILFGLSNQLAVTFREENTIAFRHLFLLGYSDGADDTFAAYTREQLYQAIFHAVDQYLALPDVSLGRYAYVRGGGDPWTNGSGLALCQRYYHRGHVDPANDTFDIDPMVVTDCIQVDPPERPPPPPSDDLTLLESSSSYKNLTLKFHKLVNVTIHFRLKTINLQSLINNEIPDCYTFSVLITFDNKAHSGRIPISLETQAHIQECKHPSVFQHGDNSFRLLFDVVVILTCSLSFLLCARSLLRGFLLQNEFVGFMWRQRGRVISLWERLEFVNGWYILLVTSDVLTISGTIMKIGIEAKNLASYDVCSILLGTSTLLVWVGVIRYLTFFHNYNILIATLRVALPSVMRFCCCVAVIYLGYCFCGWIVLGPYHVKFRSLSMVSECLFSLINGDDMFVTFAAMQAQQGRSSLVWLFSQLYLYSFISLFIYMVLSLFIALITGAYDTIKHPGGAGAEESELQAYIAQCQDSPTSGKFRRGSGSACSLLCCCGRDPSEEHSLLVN
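TRPML1-DL cells, Tet-induced overnight (~16 h, 37 °C) at 1,500 cells/well, were loaded with Ca8 no-wash dye plus quencher for 45-90 min at room temperature. Compounds were pinned during FDSS kinetic reading; agonist 54-4 at EC80 (4 uM final) then added.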
* marks the source's active call; other numbers are inactive results; ? = inconclusive.

Fields: TRPML1 blocker | ClpP mod
> CCS(=O)(=O)N1CCCc2cc(C(=O)Nc3cc([N+](=O)[O-])ccc3C)ccc21
  -7 | -0.7%
> Cc1ccc(C)c(CN2CCC(CNC(=O)Cn3ncc4c([nH]c5ccccc54)c3=O)CC2)c1
  24 | -12%
> COc1ccc(-c2cnc(C)o2)cc1S(=O)(=O)Nc1ccc(OC(F)(F)F)cc1
  7 | -4.1%
> COc1ccc(NC(=O)C2CCC(CNS(=O)(=O)c3ccc4c(c3)C(C)(C)C(=O)N4C)CC2)cc1 (stereo not drawn)
  40 | 0.3%
> COc1ccc(C(CC(=O)Nc2ccc(OC)c(OC)c2)N2Cc3ccccc3C2=O)cc1 (stereo not drawn)
  3 | 1.1%
> CCOC(=O)c1c(C)oc2nc(C)nc(N3CCN(c4ccc(OC)cc4)CC3)c12
  2 | -1.1%
> CCOC(=O)c1c(NC(C)=O)c2c3c(sc2n1Cc1c(C)cc(C)cc1C)CCCC3
  14 | -2.6%
> COc1ccc(Nc2c(-c3ccc(C)o3)nc3cc(C)ccn23)cc1
  4 | 4.4%
> CC(C)CCNC(=O)CSc1c2c(nc3ccc(Cl)cc13)CCCC2
  26 | -1.6%
> Cc1ccc(Cl)cc1NC(=O)CN1C(=O)c2cccc3cccc1c23
  22 | -8.7%
> COc1ccc(NC(=O)c2c(NCc3cccs3)sc3c2CCCCC3)c(OC)c1
  8 | 1.9%
> CCN1C(C(=O)c2ccccc2)=C(OC(=O)COc2ccccc2)c2ccccc2S1(=O)=O
  15 | 1.5%
> COc1ccccc1CNC(=O)c1ccc(-n2c(C)cc3c2CCCC3)cc1
  10 | -11%
> CC1CCN(S(=O)(=O)c2cc(C(=O)NCCc3ccccc3)n(C)c2)CC1
  -19 | 1.4%
> COc1ccccc1/C=C/C(=O)Nc1nc2n(n1)C(c1ccc(F)cc1)C=C(c1ccccc1)N2 (stereo not drawn)
  10 | -4.4%
> Cc1ccc(NC(=O)C(=O)NCC(c2cccnc2)N2CCN(Cc3ccccc3)CC2)cc1Cl (stereo not drawn)
  -8 | -0.5%
> O=C(Cn1cnc2nc3c(cc2c1=O)CCCC3)Nc1ccc(F)cc1Cl
  16 | -3.2%
> CC1=C(C(=O)N(C(C)C)C(C)C)CC(CC(=O)NCCN2CCOCC2)C(=O)N1CCC1=CCCCC1 (stereo not drawn)
  6 | -0.2%
> CCCS(=O)(=O)NC(=O)C1(C)CCCN(C(=O)c2ccco2)C1 (stereo not drawn)
  6 | 0.2%
> COc1ccc(OC)c(CCNC(=O)c2sc3nc4n(c(=O)c3c2C)CCCC4)c1
  -9 | -1.6%
> CSc1ncc(Cl)c(C(=O)Nc2ccc(S(=O)(=O)N3CCCC(C)C3)cc2)n1 (stereo not drawn)
  -5 | -4.9%
> Fc1ccc(-c2nc3ccc(Br)cn3c2Cc2ccccc2C(F)(F)F)cc1
  -10 | -19%
> CCN(c1ccccc1)S(=O)(=O)c1ccc(NC(=O)c2cc(=O)c3c(C)cc(C)cc3o2)cc1
  -5 | 1.4%
> Cc1cccc(-n2ncc3c(N4CCN(CCO)CC4)ncnc32)c1
  -2 | -7.2%
> CCOc1ccc(NC(=O)CSc2nccn2C2CCCC2)cc1
  -2 | -1.1%
> O=C(COc1ccccc1Cl)Nc1nc2c(s1)CCCC2
  -8 | -3.2%
> Cc1cccn2c(=O)cc(COc3cccc(NC(=O)c4ccccc4F)c3)nc12
  3 | -19%
> Cc1cccc(C(=O)Nc2cc3c(cc2N2CCCCC2)n(C)c(=O)c(=O)n3C)c1
  9 | -27%
> COc1ccccc1C(c1c(O)cc(C)n(Cc2ccco2)c1=O)N1CCCCC1 (stereo not drawn)
  -9 | -7.1%
> Cc1c(C(=O)OC2CCC(C)CC2)[nH]c2c1C(=O)CC(c1ccccc1Cl)C2 (stereo not drawn)
  -1 | 1.6%
> Cc1ccc2c(CNC3CCCCC3)c(C(=O)O)n(Cc3ccc(F)cc3)c2c1
  -6 | -16%
> COc1ccc(OCC(=O)N2CCC(c3nc4ccccc4s3)CC2)cc1
  3 | 1.7%
> CCOC(=O)C1=C(CN(C)Cc2ccccc2)NC(=O)NC1c1ccc(OC(C)C)cc1 (stereo not drawn)
  19 | -1.3%
> Cc1ccc(S(=O)(=O)N2CCCc3cc(NC(=O)c4cccc(Cl)c4)ccc32)cc1
  29 | -15%
> CCc1ccccc1N(C)S(=O)(=O)c1ccc2[nH]cc(C(=O)NCCOC)c(=O)c2c1
  19 | 28µM*
> Cc1ccc(S(=O)(=O)CC(=O)N2CCN(c3nc4c(F)cccc4s3)CC2)cc1
  -7 | 2.4%
> CCOC(=O)c1cc(OC(=O)c2cc(OC)c(OC)c(OC)c2)n(-c2ccccc2)n1
  7 | -13%
> Cc1cccc(C)c1-n1nnnc1SCc1nc(N)nc(N(C)C)n1
  6 | -30%
> CC1=C(C(=O)Nc2cc(Cl)ccc2C)C(c2sccc2C)n2ncnc2N1 (stereo not drawn)
  1 | 0.9%
> CC(C)Cn1c(-c2ccc(S(=O)(=O)N3CCCC3)cc2)csc1=Nc1ccccc1
  -1 | -7.8%
> COc1ccc(NC(=O)c2cc(C(C)=O)n3ccccc23)cc1
  -8 | -1.1%
> O=C(Cn1c(=O)n(-c2ccc(Cl)cc2)c(=O)c2sc3ccccc3c21)NC1CCCC1
  15 | ?
> O=C(Nc1ccc2c(c1)N(C1CCCC1)C(=O)c1ccccc1S2)c1ccc(F)cc1
  -12 | ?
> COc1ccc(CCNC(=O)CCCn2c(=O)c3cccn3c3ccc(F)cc32)cc1OC
  -1 | -3.8%
> CCOc1ccc(NC(=O)C2CCN(S(=O)(=O)c3cc(-c4noc(C)n4)ccc3C)CC2)cc1
  -4 | -2.0%
> CCOC(=O)C1CCCN(C(=O)Cn2ncc3c(C)n(Cc4ccccc4Cl)c(C)c3c2=O)C1 (stereo not drawn)
  -18 | -17%
> CCn1cc(C(=O)NCCc2ccc(OC)c(OC)c2)c(=O)c2cc(S(=O)(=O)N(C)C3CCCCC3)ccc21
  -19 | -10%
> O=c1n(Cc2ccc(F)cc2Cl)c2ccccc2c2nc(-c3ccccc3)nn12
  10 | -0.7%
> CCc1ccc(C(=O)COC(=O)C(Cc2c[nH]c3ccccc23)NC(=O)c2ccc(Br)cc2)cc1 (stereo not drawn)
  -7 | -3.1%
> Cc1cc(C)c2c(n1)nn1c(C)c(CCC(=O)Nc3ccc(C)c(Cl)c3)c(C)nc21
  -11 | -23%

Additional structures.
Fields: TRPML1 blocker | ClpP mod
> CCc1ccc(OCC(=O)NCc2nc(-c3cccc(C)c3)no2)c(Br)c1
  30 | -3.5%
> Cc1cccc(CN2CCC(CNc3ncnc4onc(-c5ccc(Cl)cc5)c34)CC2)c1
  -14 | 3.2%
> O=C(CCc1nc(-c2ccccc2F)no1)Nc1cccc(C(F)(F)F)c1
  -10 | 1.0%
> COc1ccccc1NC(=O)CSc1nc(-c2ccccc2F)nc2cc(=O)[nH]n12
  2 | 2.3%
> O=C(CSc1nc2c(c(=O)[nH]1)CCC2)Nc1ccccc1C(F)(F)F
  16 | -3.5%
> Cc1cc(NC(=O)C2CCCN(S(=O)(=O)c3ccc(Br)s3)C2)ccc1Br (stereo not drawn)
  -13 | -3.8%
> CC(=O)Nc1nonc1-c1nnc(SCC(=O)Nc2ccc(F)cc2F)n1-c1ccccc1
  -15 | 0.6%
> Cc1ccccc1OCC(=O)Nc1ccc(-c2nc3ccccc3o2)cc1
  -6 | 3.7%
> CC1CCc2c(sc3nnn(CCCCOc4ccc(Cl)cc4)c(=O)c23)C1 (stereo not drawn)
  -14 | 2.2%
> COc1ccc(-n2ncc(C(=O)NCCc3ccsc3)c2C2CCN(C(=O)OC(C)(C)C)CC2)cc1
  -25 | 1.4%
> Cc1cccc(NC(=O)CN2c3ccccc3S(=O)(=O)c3ccccc32)c1C
  14 | ?
> Cc1cc(Cl)ccc1-n1c(CCC(=O)O)ccc1-c1cccs1
  17 | -3.1%
> COCCNC(=O)C1(C)CCCN(Cc2cccc(OC(=O)c3ccccc3)c2)C1 (stereo not drawn)
  -6 | -0.3%
> COc1cccc(C(=O)NC(=O)Nc2ccc(-n3nc(C(F)(F)F)cc3C(F)(F)F)cc2)c1
  2 | 0.5%
> Cc1c(Cl)cccc1NS(=O)(=O)c1ccc2[nH]cc(C(=O)NC3CCCC3)c(=O)c2c1
  -1 | ?
> CN1CCc2nc3sc(C(=O)Nc4c(F)cccc4F)c(N)c3cc2C1
  10 | -9.7%
> COc1cccc(Nc2sc(C(=O)c3ccc(F)cc3)c(N)c2C(=O)NCc2ccc(C)cc2)c1
  1 | -3.0%
> CCCCNC(=O)c1ccc(-c2nc(CN3CCc4ccccc43)c(C)o2)cc1
  -4 | -0.3%
> CCOc1ccc(OCC)c(NS(=O)(=O)c2ccc3c(c2)CCCN3C(C)=O)c1
  1 | -1.0%
> CCCCn1c(NCc2cc(Br)ccc2O)nc2ccccc21
  35 | -0.6%
> Cc1cccc(C(=O)N(Cc2nc(-c3ccc(Cl)cc3)no2)C(C)C)c1
  2 | 0.4%
> COc1cccc(CNC(=O)c2ccc3oc(=O)n(Cc4ccccc4)c3c2)c1
  -7 | 1.2%
> CCn1cc(S(=O)(=O)c2ccc(C)cc2)c(=O)c2cc(F)c(N3CCCCCC3)cc21
  8 | -11%
> O=C(Cn1cc(S(=O)(=O)Cc2ccc(F)cc2)c2ccccc21)NCc1ccccc1Cl
  7 | 3.8%
> COc1ccc(Cl)cc1NC(=O)CSc1nc(=O)[nH]c2c1CCCC2
  11 | -3.2%
> C#CCOc1ccc(-c2nnc(Nc3ccc(NC(C)=O)cc3)c3ccccc23)cc1
  -4 | 1.0%
> COc1ccc(CNCCSc2nnnn2-c2ccccc2)c(OC)c1
  16 | -3.8%
> COc1ccc(-c2nc(Cn3c(SCc4ccccc4F)nc4cccnc43)c(C)o2)cc1
  -10 | ?
> N#Cc1ccccc1NC(=O)C(=O)NCCc1csc(-c2ccc(C(F)(F)F)cc2)n1
  43 | 3.7%
> CCC(Sc1nncn2c1cc1occc12)C(=O)Nc1ccc(C)c(Cl)c1 (stereo not drawn)
  11 | -3.2%
> CCOC(=O)Cc1ccc(NC(=O)N(Cc2ccc(CC)cc2)Cc2cn[nH]c2-c2ccc(OC)cc2)cc1
  4 | -2.1%
> COc1ccccc1N1CCN(S(=O)(=O)CCNC(=O)COc2ccc(F)cc2)CC1
  -8 | -9.0%
> Cc1ccc(CCNc2ncnc3onc(C)c23)cc1
  25 | 1.1%
> CCOc1ccccc1N1CC(c2nc3ccccc3n2CCOc2ccc(OC)cc2)CC1=O (stereo not drawn)
  -13 | -6.2%
> Cc1oc(-c2cccc(Br)c2)nc1CN1CCC(C(=O)NCCc2ccc(Cl)cc2)CC1
  6 | -2.3%
> Cc1ccc(C2=CC(c3ccccc3F)n3c(nc4ccccc43)N2)cc1C (stereo not drawn)
  -1 | -0.1%
> O=C(Nc1ccc(Cl)cc1)c1cc(S(=O)(=O)N2CCc3ccccc32)ccc1F
  23 | -15%
> O=C(c1cccn1-c1nnc(N2CCCC2)s1)N1CCN(c2ccccc2)CC1
  -23 | -1.4%
> CCOc1ccc(-c2noc(CSc3nnc(Cc4ccccc4)n3-c3cccc(C)c3)n2)cc1
  6 | -0.9%
> O=C(NCc1ccc2c(c1)CCN2C(=O)c1ccc(F)cc1)c1c(F)cccc1F
  -12 | -0.6%

5 entries from above, sorted by molar mass, highest first:
Fields: TRPML1 blocker | ClpP mod
> CCOC(=O)Cc1ccc(NC(=O)N(Cc2ccc(CC)cc2)Cc2cn[nH]c2-c2ccc(OC)cc2)cc1
  4 | -2.1%
> Cc1oc(-c2cccc(Br)c2)nc1CN1CCC(C(=O)NCCc2ccc(Cl)cc2)CC1
  6 | -2.3%
> CCOc1ccc(-c2noc(CSc3nnc(Cc4ccccc4)n3-c3cccc(C)c3)n2)cc1
  6 | -0.9%
> CCOc1ccccc1N1CC(c2nc3ccccc3n2CCOc2ccc(OC)cc2)CC1=O (stereo not drawn)
  -13 | -6.2%
> O=C(NCc1ccc2c(c1)CCN2C(=O)c1ccc(F)cc1)c1c(F)cccc1F
  -12 | -0.6%

Next part
Fields: TRPML1 blocker | ClpP mod
> O=C(Cc1ccccc1)Nc1sc2c(c1C(=O)Nc1ccccc1Cl)CCCC2
  24 | -4.0%
> CC(C)C[C@H]1CNC(=S)N1CC1CCCN1C[C@H](Cc1ccccc1)N1C[C@H](Cc2ccccc2)N(CC2CCCCC2)C1=S (stereo partly drawn)
  -17 | 0.5%
> Cc1cccc2c(=O)cc(CSCC(=O)Nc3ccc(Cl)cc3)[nH]c12
  2 | -5.9%
> NC(=O)c1c(NC(=O)c2noc3c2CCCC3)sc2c1CCCC2
  -3 | -0.2%
> CCc1ccc(S(=O)(=O)c2nnn3c2nc(N2CCCC2)c2sccc23)cc1
  -23 | ?
> CN(c1ccc(F)cc1)S(=O)(=O)N1CCCC(C(=O)NCc2cccc(Br)c2)C1 (stereo not drawn)
  16 | -0.4%
> Clc1cccc(N2CCN(c3nc4ccccc4n4cnnc34)CC2)c1
  25 | -6.0%
> COc1ccc(CNC(=O)CN2C(=O)CC(c3ccc(C)c(C)c3)=Nc3ccccc32)cc1
  -21 | -0.5%
> CCN(CC)CCCNc1ncnc2c1cnn2-c1ccc(C)c(C)c1
  32 | 4.4%

Only part of the results is shown; the hit share may differ from the screen's.
